Bioassay records from PubChem BioAssay.
Ecoli rRNA inh: inhibitors of bacterial rRNA selective over humanized ribosomes; E. coli WT GFP vs humanized-ribosome RFP mutants, fluorescence, 24 h; stronger effect = lower value; DMSO median 0, no signal -100; 350,000 compounds, 1.6% hits; AID 720706; GFP signal change (wild-type ribosome), % (no concentration beside the values);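 active = significant combined selectivity score with lowered wild-type GFP, culture density cut under 30%, mutant RFP and density less affected; inactive = any of these conditions unmet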; note: one replicate is shown; some compounds called inactive have numbers as strong as hits
Ecoli rRNA inh OD600: also measured in Ecoli rRNA inh; calls as there; OD600 change, %; measured here: OD600 growth;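 optical density of the mix in the first replicate; 0 = DMSO median and -100 = no signal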
Ecoli rRNA inh RFP: further read-out of Ecoli rRNA inh, marked with its call; RFP signal change, %; measured here: RFP humanized mutant strains;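 first replicate; 0 = DMSO median and -100 = no signal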
Starred values were filed as active, the others as inactive; & = joins results of further samples. The list is partial; count on the stated rates, not on these rows.

Ecoli rRNA inh	Ecoli rRNA inh OD600	Ecoli rRNA inh RFP	smiles
0&-5	2&0	1.9&0.6	Cn1cnc(S(=O)(=O)N2[C@@H]3CNC[C@H]2C3c2ccc(/C=C/c3ccccc3)cc2)c1 (stereo partly specified)
3	3	-0.7	N#C[C@H]1[C@@H](c2ccc(C#CC3CCCCC3)cc2)[C@@H](CO)N1S(=O)(=O)c1ccccc1
-1	-13	-0.4	C[C@@H]1CN([C@H](C)CO)C(=O)Cc2cc(NC(=O)Nc3cccc4ccccc34)ccc2O[C@@H]1CN(C)S(C)(=O)=O
-1	1	-0.2	C[C@H](CO)N1C[C@H](C)[C@H](CN(C)S(=O)(=O)c2ccccc2)OCc2cn(nn2)CCCC1=O
-1	-8	-0.1	CCCNC(=O)N1CC2(CCN(CC3CCCCC3)CC2)c2c(n(C)c3cc(OC)ccc23)[C@@H]1CO
-1	-6	-1.1	C[C@@H]1CN([C@@H](C)CO)S(=O)(=O)c2ccc(C#CC(C)(C)O)cc2O[C@@H]1CN(C)Cc1ccccc1
5	13	1.1	COc1ccc(-c2csc(C(NC(C)=O)c3cccc(F)c3)n2)cc1 (stereo unspecified)
-1	3	-0.8	CNC(=O)C[C@H]1CC[C@@H]2[C@@H](COc3ccc(NS(=O)(=O)c4ccccc4C)cc3C(=O)N2C)O1
2	1	-0.8	C[C@@H]1CN([C@@H](C)CO)C(=O)Cc2cc(NC(=O)Nc3cccc4ccccc34)ccc2O[C@@H]1CN(C)Cc1ccc(Cl)c(Cl)c1
-4	0	1.9	COc1ccc(S(=O)(=O)N(C)C[C@H]2OCCCC[C@@H](C)Oc3ccc(N(C)C)cc3C(=O)N([C@@H](C)CO)C[C@@H]2C)cc1
-1	4	0.1	C[C@@H]1CN([C@@H](C)CO)C(=O)Cc2cc(NS(=O)(=O)c3ccccc3)ccc2O[C@@H]1CN(C)CC1CC1
3	5	-1.6	COc1ccc(NC(=O)N(C)C[C@@H]2OCCCC[C@@H](C)Oc3ccc(NC(=O)NC(C)C)cc3C(=O)N([C@H](C)CO)C[C@@H]2C)cc1
5	2	-0.1	C[C@@H]1CCCCO[C@@H](CN(C)C)[C@H](C)CN([C@H](C)CO)C(=O)c2cc(NC(=O)Nc3ccccc3)ccc2O1
4	10	-0.5	C[C@@H]1CN([C@@H](C)CO)C(=O)Cc2cc(NS(=O)(=O)c3cn(C)cn3)ccc2O[C@H]1CN(C)C(=O)Nc1ccc(F)cc1
-8	-6	2.5	OC[C@H]1[C@H](c2ccccc2)C2(CN(Cc3ccccc3F)C2)N1Cc1ccccc1F
0	7	-3.6	CC(=O)N1[C@H](CO)[C@H](c2ccc(-c3ccncc3)cc2)[C@@H]1CNC(=O)CC1CC1
-1	-6	4.1	O=S(=O)(N[C@@H]1CC[C@@H](CCNS(=O)(=O)c2ccccc2Cl)O[C@@H]1CO)c1ccccc1
2	4	0.4	Cc1ccc(C)c(OCC(=O)OCc2csc(CC(=O)Nc3ccccc3C)n2)c1
1	-8	1.9	C[C@@H]1CN([C@@H](C)CO)C(=O)Cc2cc(NC(=O)Cn3cnnn3)ccc2O[C@@H]1CN(C)Cc1ccc(Oc2ccccc2)cc1
0	-3	0.0	O=C(C1CCCCC1)N1C[C@@H](n2cc(C3CC3)nn2)[C@H](O)C[C@@H]1c1ccc(Cl)cc1
1	11	-6.9	C[C@@H]1CN([C@@H](C)CO)C(=O)c2cc(-c3ccccc3)cnc2O[C@H]1CN(C)C(=O)NC1CCCC1
-4	-3	7.7	Cc1ccc(S(=O)(=O)N(C)C[C@H]2OCc3ccccc3-c3ccccc3C(=O)N([C@@H](C)CO)C[C@@H]2C)cc1
-4	-1	-1.1	C[C@@H]1CN([C@H](C)CO)C(=O)Cc2cc(N(C)C)ccc2O[C@@H]1CN(C)Cc1ccc(C(=O)Nc2ccccc2N)cc1
2	3	-0.4	C[C@H](CO)N1C[C@H](C)[C@H](CN(C)C(=O)Nc2ccc(F)cc2)Oc2ccc(NC(=O)Cn3cnnn3)cc2C1=O
5	3	-2.8	CC(=O)Nc1cccc(NC(=O)C2CCCO2)c1 (stereo unspecified)
4	9	-1.7	CCC(=O)N1CC2(C1)CN(C(=O)c1cnccn1)[C@@H](CO)c1c2c2ccc(OC)cc2n1C
0	4	-3.4	Cc1noc(C)c1S(=O)(=O)Nc1ccc2c(c1)CC(=O)N([C@@H](C)CO)C[C@H](C)[C@@H](CN(C)Cc1ccncc1)O2
1	-2	1.3	C[C@@H]1CN([C@H](C)CO)C(=O)c2cc(/C=C/c3ccccc3)cnc2O[C@H]1CN(C)C(=O)Nc1ccc(C(F)(F)F)cc1
-2	9	-1.4	C[C@H](CO)N1C[C@H](C)[C@H](CN(C)C(=O)Nc2ccc(F)cc2)Oc2ncc(-c3cccnc3)cc2C1=O
-1	0	0.3	C[C@H](CO)N1C[C@H](C)[C@H](CN(C)Cc2ccncc2)Oc2ccc(NC(=O)Cc3ccccc3)cc2CC1=O

(listing goes on)
Ecoli rRNA inh	Ecoli rRNA inh OD600	Ecoli rRNA inh RFP	smiles
1&-3	0&0	4.0&1.0	C[C@@H]1CN([C@@H](C)CO)C(=O)c2ccccc2-c2ccccc2CO[C@@H]1CN(C)Cc1ccc(Cl)c(Cl)c1
6	1	-3.2	Cc1ccc(S(=O)(=O)N(C)C[C@H]2Oc3ccc(NC(=O)CCCN(C)C)cc3CC(=O)N([C@@H](C)CO)C[C@@H]2C)cc1
1	0	1.2	C/C=C/c1ccc([C@H]2[C@@H](CN(C)C(=O)CC)N(C(=O)C3CC3)[C@H]2CO)cc1
4	-6	-2.3	CC(C)CC#Cc1ccc([C@H]2[C@H](CO)N3C(=O)CN(C(=O)c4cccc(F)c4)C[C@@H]23)cc1
-1	-3	0.3	Cc1cccc(S(=O)(=O)N2CCCCN3[C@H](CO)[C@H](c4ccc(C#CC5CC5)cc4)[C@@H]3C2)c1
14	3	56	FC(F)(F)c1ccccc1Cc1c(-c2cccc(Br)c2)nc2c3ccccc3ccn12
2	7	-0.6	COCC(=O)N1[C@@H](C#N)[C@H](c2ccc(-c3cccnc3)cc2)[C@@H]1CO
-3	-21	13	C[C@@H]1CN([C@@H](C)CO)C(=O)Cc2cc(NS(=O)(=O)c3ccc(F)cc3)ccc2O[C@H]1CN(C)Cc1ccc(C(F)(F)F)cc1
-6	-1	0.0	C/C=C/c1ccc([C@@H]2[C@H](CO)N(CCC(F)(F)F)C23CN(C(=O)CC2CC2)C3)cc1
3	4	-4.7	CCCC#Cc1cnc2c(c1)C(=O)N([C@@H](C)CO)C[C@H](C)[C@H](CN(C)Cc1ccncc1)O2
2	8	0.2	O=C([C@@H]1[C@@H](CO)[C@@H]2Cn3c(ccc(C4=CCCC4)c3=O)[C@H]1N2C(=O)c1cccnc1)N1CCOCC1
3	10	-2.4	O=C(C[C@H]1CC[C@H](NC(=O)Nc2ccccc2)[C@@H](CO)O1)NCc1ccccn1
-3	-1	-1.4	COCCNC(=O)C[C@@H]1CC[C@H]2[C@@H](COC[C@@H](O)CN2Cc2ccc(Cl)c(Cl)c2)O1
12	18	0.8	Cc1sc2nc(-c3ccccc3F)oc(=O)c2c1C
-8	-4	23	CO[C@H]1CN(C)C(=O)c2cc(NC(=O)c3ccc(-c4ccccc4)cc3)ccc2OC[C@H](C)NC[C@@H]1C
1	16	-5.2	CN1CCN(C2CN(Cc3ccc([N+](=O)[O-])cc3)S(=O)(=O)C2)CC1 (stereo unspecified)
-2	-10	1.5	C[C@@H]1CCCCO[C@H](CN(C)Cc2ccncc2)[C@H](C)CN([C@H](C)CO)C(=O)c2cc(NS(=O)(=O)c3ccc(F)cc3)ccc2O1
2	0	-0.3	CC(=O)N1[C@@H]2c3ccc(-c4ccncc4)c(=O)n3C[C@@H]2[C@@H](CO)[C@@H]1C(=O)NC1Cc2ccccc2C1
11	16	1.6	COc1ccc(CN2C(=O)CN(S(C)(=O)=O)CC2(C)C(=O)NCc2ccccc2)cc1OC (stereo unspecified)
13	7	-1.6	Cc1cc(O)ccc1-c1ccc2nncn2c1
-11	-45	4.1	C/C=C/c1ccc2c(c1)O[C@H](CN(C)Cc1ccc(F)cc1)[C@@H](C)CN([C@H](C)CO)S2(=O)=O
3	5	0.8	CNC[C@H]1OCCCC[C@@H](C)Oc2ccc(NS(=O)(=O)c3ccc(Cl)cc3)cc2C(=O)N([C@H](C)CO)C[C@@H]1C
-1	-2	-2.9	O=S(=O)(c1ccccc1F)N1CCCCN2[C@H](CO)[C@@H](c3ccc(-c4ccncc4)cc3)[C@H]2C1
0	1	0.0	C[C@@H]1CN([C@@H](C)CO)C(=O)c2cc(NS(=O)(=O)c3cn(C)cn3)ccc2O[C@@H]1CN(C)Cc1ccc(C(F)(F)F)cc1
-24	-24	18	O=C(C[C@@H]1CC[C@@H]2[C@H](COC[C@H](O)CN2Cc2cc(F)ccc2F)O1)NCc1ccc(Oc2ccccc2)cc1
3	6	-1.6	C[C@@H]1CN([C@H](C)CO)C(=O)Cc2cc(NC(=O)CCCCCC(=O)Nc3ccccc3N)ccc2O[C@H]1CN(C)C
3	2	-0.7	Cn1cnc(S(=O)(=O)N[C@H]2C=C[C@H](CC(=O)NCC3CCCCC3)O[C@@H]2CO)c1
-3	0	-5.4	CCC(=O)N(C)C[C@@H]1Oc2ncc(-c3ccccc3OC)cc2C(=O)N([C@H](C)CO)C[C@H]1C
-5	-20	25	CC(C)(C)[S@@](=O)N1Cc2cc(C(=O)NCCc3ccncc3)nc(-c3cccc(-c4ccccc4)c3)c2[C@H]1CCO
3	17	2.0	CC(C)[C@H]1COCn2nncc2CCCC(=O)N1

Of the compounds above, these have an aryl methoxy group:
Ecoli rRNA inh	Ecoli rRNA inh OD600	Ecoli rRNA inh RFP	smiles
-1	-8	-0.1	CCCNC(=O)N1CC2(CCN(CC3CCCCC3)CC2)c2c(n(C)c3cc(OC)ccc23)[C@@H]1CO
5	13	1.1	COc1ccc(-c2csc(C(NC(C)=O)c3cccc(F)c3)n2)cc1 (stereo unspecified)
-4	0	1.9	COc1ccc(S(=O)(=O)N(C)C[C@H]2OCCCC[C@@H](C)Oc3ccc(N(C)C)cc3C(=O)N([C@@H](C)CO)C[C@@H]2C)cc1
3	5	-1.6	COc1ccc(NC(=O)N(C)C[C@@H]2OCCCC[C@@H](C)Oc3ccc(NC(=O)NC(C)C)cc3C(=O)N([C@H](C)CO)C[C@@H]2C)cc1
4	9	-1.7	CCC(=O)N1CC2(C1)CN(C(=O)c1cnccn1)[C@@H](CO)c1c2c2ccc(OC)cc2n1C
11	16	1.6	COc1ccc(CN2C(=O)CN(S(C)(=O)=O)CC2(C)C(=O)NCc2ccccc2)cc1OC (stereo unspecified)
-3	0	-5.4	CCC(=O)N(C)C[C@@H]1Oc2ncc(-c3ccccc3OC)cc2C(=O)N([C@H](C)CO)C[C@H]1C

(cont.)
Ecoli rRNA inh	Ecoli rRNA inh OD600	Ecoli rRNA inh RFP	smiles
-4	8	-1.4	C[C@@H]1CN([C@H](C)CO)S(=O)(=O)c2ccc(C#CCN(C)C)cc2O[C@H]1CN(C)Cc1ccncc1
0	2	0.0	COc1ccccc1C(=O)Nc1ccc2c(c1)C(=O)N(C)[C@@H]1CC[C@@H](CC(=O)NCCc3ccncc3)O[C@H]1CO2
3	-7	-2.0	CC(C)C#Cc1ccc([C@H]2[C@H](CO)N3C(=O)CN(C(=O)c4ccc5c(c4)OCO5)C[C@@H]23)cc1
-3	-28	19	CCCCC[C@@H](C)N1C[C@H](COCc2ccccc2)Oc2cc(N3CC[C@H](N(C)C)C3)ccc2S1(=O)=O
0	6	1.8	CN(C)C(=O)[C@@H]1[C@@H](CO)[C@@H]2Cn3c(ccc(-c4ccncc4)c3=O)[C@@H]2N1Cc1ccccc1
-12	-18	-0.7	COc1cccc(CN2CCC2(C)C(=O)Nc2cccc(NS(C)(=O)=O)c2)c1OC (stereo unspecified)
1	-10	-2.4	CCCC(=O)Nc1ccc2c(c1)OC[C@@H](C)N(C(=O)c1ccccc1F)C[C@H](C)[C@@H](OC)CN(C)C2=O
0	0	1.6	CCS(=O)(=O)N[C@H]1C=C[C@@H](CC(=O)NCc2ccc(Cl)cc2)O[C@@H]1CO
-1	-5	-0.3	COc1ccc(S(=O)(=O)N[C@H]2C=C[C@H](CC(=O)NCc3ccccc3F)O[C@@H]2CO)cc1
1	1	-2.0	O=C(C1CCOCC1)N1CC(=O)N2[C@H](CO)[C@H](c3ccc(C#CC4CCCCC4)cc3)[C@H]2C1
0	-4	-2.0	O=S(=O)(Cc1ccccc1)NCC[C@@H]1CC[C@@H](NS(=O)(=O)c2ccc(F)cc2)[C@H](CO)O1
4	22	-1.2	O=C(Cc1ccncc1)N1CC(=O)N2[C@H](CO)[C@H](c3ccc(Br)cc3)[C@@H]2C1
0	8	0.4	COc1ccc2c3c([nH]c2c1)[C@@H](CO)N(S(=O)(=O)c1cn(C)cn1)CC31CCN(CC2CCCC2)CC1
-30	-68	8.1	C(=C\c1ccccc1)/CN1CCN(C(c2ccccc2)c2nnnn2C2CCCC2)CC1 (stereo unspecified)
-3	0	1.7	CC(C)CC#Cc1ccc2c(c1)O[C@@H](CN(C)C(=O)NC1CCCC1)[C@@H](C)CN([C@@H](C)CO)S2(=O)=O
0	2	0.8	C[C@H]1CN([C@@H](C)CO)C(=O)Cc2cc(NS(=O)(=O)c3ccc(F)cc3)ccc2O[C@H]1CN(C)S(=O)(=O)c1cccs1
-3	3	-0.4	C/C=C/c1cnc2c(c1)C(=O)N([C@@H](C)CO)C[C@H](C)[C@@H](CN(C)C(=O)c1ccc3c(c1)OCO3)O2
4	8	-1.3	Cc1ccc(S(=O)(=O)NCC[C@H]2CC[C@@H](NC(=O)c3cccnc3)[C@H](CO)O2)cc1

Single values from above:
Ecoli rRNA inh RFP, Cn1cnc(S(=O)(=O)N[C@H]2C=C[C@H](CC(=O)NCC3CCCCC3)O[C@@H]2CO)c1 reads -0.7
Ecoli rRNA inh RFP, COc1ccc2c3c([nH]c2c1)[C@@H](CO)N(S(=O)(=O)c1cn(C)cn1)CC31CCN(CC2CCCC2)CC1 reads 0.4
